# Screening data deposited in PubChem by PCMD.
# Calb biofilm kill: mixture kills Candida albicans biofilm cells; C. albicans biofilm persisters + clotrimazole, fluorescence viability; primary screen in compound mixtures of four per well; inhibition, % at 7.6 µM; 0.02% of 120,000 active; AID 1242;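 active = inhibition above 30.3% in the primary screen of four-compound pools, then above 30% when the compound was retested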;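 note: compounds exposed to preformed 24 h biofilms for 48 h; the number belongs to the whole pool; some results filed as inactive read as strong as hits; inactives centre near 12; 0% = biofilm with clotrimazole alone and 100% = kill control; retested singly at about 60 µM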
#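 Incubation: 24 h biofilm formation, then 48 h compound exposure, 37 °C | Material: C. albicans biofilms | Buffer or medium: RPMI/MOPS medium, pH 7.0 | Measured by: 2-h Alamar Blue fluorescence, 535/590 nm excitation/emission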
# Numbers without * were called inactive.
SMILES,Calb biofilm kill
CN1CCN(C(=S)NC(=O)c2ccc(Br)cc2)CC1,29
COCCn1c(C)cc(C(=O)COC(=O)/C=C/c2cccc(OC)c2)c1C,3
CCOC(=O)N1CCC(=NNC(N)=O)CC1,9
Cc1onc(-c2ccccc2)c1C(=O)N(Cc1ccco1)Cc1cccs1,5
Cn1c(Cn2cnc([N+](=O)[O-])n2)nnc1SCC(=O)Nc1cccc(Cl)c1,16
OCCC1CN(Cc2ccccc2-c2ccco2)CCN1C1CCCC1 (stereo not given),4
COc1ccc(CCN(C)c2ccc(C(N)=O)cc2[N+](=O)[O-])cc1OC,-3
Cc1ccccc1-n1c(-c2ccoc2C)n[nH]c1=S,12
Cn1cc([N+](=O)[O-])c(C(=O)Nc2cc(Oc3ccccc3)cc([N+](=O)[O-])c2)n1,10
CNS(=O)(=O)c1cccc2nsnc12,5
Cc1cccc(NC(=O)c2nnn(-c3cccc(C(F)(F)F)c3)c2N)c1,2
Fc1ccc(-c2nn(-c3ccccc3)cc2CNCc2ccccc2)cc1,14
O=C(O)CSc1nnc(Nc2ccccc2)n1-c1ccccc1,15
CC(C)NC(=O)N(O)C1N(C(C)C)C(=O)N(Cc2ccc3c(c2)OCO3)C1(C)C (stereo not given),19
CCN1CCN(CC(O)COC(c2ccccc2)c2ccccc2)CC1 (stereo not given),7
Cc1n[nH]c(=S)n1/N=C/c1ccccc1,2
COc1ccc(NC(=O)NCCN2CCc3ccccc3C2)cc1,4
COC(=O)/C(C#N)=C/c1c(-c2ccccc2)nc2n1CCS2,23
COc1ccc(CC2(C)OC(c3ccccc3)=NN2C(C)=O)cc1 (stereo not given),-3
COc1ccc(CCCc2nnc(SCc3nc4ccccc4c(=O)[nH]3)n2C)cc1,14

# A second format for some results above.
mol	Calb biofilm kill
CCOC(=O)N1CCC(=NNC(N)=O)CC1	9
Cc1onc(-c2ccccc2)c1C(=O)N(Cc1ccco1)Cc1cccs1	5

# The results go on:
SMILES,Calb biofilm kill
COc1ccccc1NC(=S)N1CCN(c2ncccn2)CC1,-3
O=C(COC(=O)c1c(Cl)cccc1Cl)Nc1ccccc1Br,20
CCCn1c(=O)c2c(nc3n2CCS3)n(C)c1=O,22
CCCc1nc2ccccc2c(=O)n1NC(=O)c1c(O)c2ccccc2n(C)c1=O,50
C=CCn1c(SCC(=O)Nc2nc(C)cs2)nnc1C(NC(=O)c1ccccc1)C(C)C (stereo not given),9
O=C(N/N=C/c1cccn1-c1ccc([N+](=O)[O-])cc1)c1cccnc1,22
Cc1cccc(NC(=O)CCC(=O)N/N=C/c2ccco2)c1C,9
CC(=O)c1cnc(Nc2cccc(Cl)c2Cl)s1,17
COc1ccc(NC(=S)N2CCC(C(=O)c3ccc(C)cc3)CC2)c(OC)c1,16
CC1CCN(S(=O)(=O)c2ccc3c(c2)c(=O)c(C(=O)NCc2ccccc2Cl)cn3C)CC1,22
NCC(c1ccccc1)(c1ccccc1)c1ccccc1,13
COc1cc(/C=N\NC(=O)c2c(C)nc3cc(C)ccn23)ccc1O,26
CCN(CC)CCNC(=O)c1ccc(NC(=O)c2ccc(Cl)c(S(=O)(=O)N3CCCCCC3)c2)cc1,14
CCC1=NN(C(=O)c2ccccc2Br)C(O)(c2ccc(Br)cc2)C1 (stereo not given),11
Cc1cc2oc3c(c(=O)c2cc1C)C(c1ccc(C(C)C)cc1)N(CCCN1CCOCC1)C3=O (stereo not given),8
Cc1ccc2oc(=O)cc(CN3CCN(C/C=C/c4ccccc4)CC3)c2c1,10
Cc1c(NC(=O)/C(=C/c2cccs2)NC(=O)c2ccccc2)c(=O)n(-c2ccccc2)n1C,14
CC(C)CC(NC(=O)c1ccc(C#CC(C)(C)O)s1)C(=O)O (stereo not given),2
COc1ccc(NC(=S)NC(NC(C)=O)C(Cl)(Cl)Cl)c([N+](=O)[O-])c1 (stereo not given),13
CS(=O)(=O)c1ccc(C(=O)OCC(=O)NC23CC4CC(CC(C4)C2)C3)cc1[N+](=O)[O-],8
O=C(Cc1csc(Nc2nc(=S)[nH]c3ccccc23)n1)NCCCN1CCN(c2ccccc2F)CC1,5
COCCCN1CCN(C2Cc3ccccc3Sc3ccc(Cl)cc32)CC1 (stereo not given),10
CCCn1c(SCC(=O)Nc2cccc(S(=O)(=O)N(C)C)c2)nc2ccccc2c1=O,8
FC(F)(F)c1cnc(-c2cnc(-c3cccnc3)nc2)c(Cl)c1,11
CCOC(=O)C1CCN(C(=O)Cn2cc(C(=O)OC)c3ccccc32)CC1,4
O=C(Cc1ncc(C(F)(F)F)cc1Cl)NC1CC1,11
CC(/C=N/n1c(COc2ccccc2)n[nH]c1=S)=C\c1ccco1,17
CN(C(=O)CSc1nc2ccc([N+](=O)[O-])cc2s1)C1CCS(=O)(=O)C1 (stereo not given),9
COc1cccc(/C=C/C(=O)Nc2ccccc2N2CCOCC2)c1,-7
CN(C)CCCNC(=O)/C=C/c1ccc(OCc2c(F)cccc2Cl)cc1,5
CCN1/C(=C/c2ccc3cc(C)ccc3[n+]2CC)Sc2ccccc21,14
CN1C(=O)Cc2cc(S(=O)(=O)NCc3cccs3)ccc21,-9
CC(NS(=O)(=O)c1ccc(OCC(=O)Nc2cccc([N+](=O)[O-])c2)cc1)c1ccccc1 (stereo not given),21
COC(=O)CSc1nnc(CSc2nc(C)cc(C)n2)o1,13
Cc1noc(C)c1N=Nc1ccc(Br)cc1C(=O)O,17
O=C(COC(=O)c1ccc(Cl)nc1)Nc1ccc2c(c1)OCO2,10
Cc1ccc(NC(=O)COC(=O)CCC(=O)c2ccc(C(C)(C)C)cc2)c([N+](=O)[O-])c1,17
COc1ccc(NC(=O)c2ccc(S(=O)(=O)N(C)C)cc2)cc1,8
C/C(=N\Nc1nc2ccccc2[nH]1)c1cccs1,17
O=c1cc(-c2ccc(O)cc2)oc2cc(O)c(C3OC(CO)C(O)C(O)C3O)c(O)c12 (stereo not given),20
COc1ccc(CC(=O)Nc2ccc(OC)nc2)cc1,2
Cc1ccccc1OCc1nc(C#N)c(N2CCCC2)o1,29
O=C(Nn1c(C2CCC2)nc2ccccc2c1=O)c1cccs1,9
CCN(CC)S(=O)(=O)c1ccc(Cl)c(NC(=O)CSc2nnc(-c3cccs3)o2)c1,10
CNC(=S)Nc1ccc([N+](=O)[O-])cc1,24
CC(CNC(=S)Nc1cc(F)cc(F)c1)CSc1ccc(Cl)cc1 (stereo not given),2
O=C(Oc1cccc2cccnc12)c1ccc(N2C(=O)C3C4CCC(C4)C3C2=O)cc1 (stereo not given),17
CCc1nnc(NC(=O)CSc2ccc(-c3ccccc3OC)nn2)s1,9
COc1ccc(CCNc2ccc(C(CC(N)=O)NC(=O)c3ccc(Br)cc3)cc2[N+](=O)[O-])cc1 (stereo not given),11
O=C(CN1C(=O)C2C3C=CC(C4CC34)C2C1=O)NCc1ccco1 (stereo not given),15
O=C(CCN1CCOCC1)N/N=C/c1cc([N+](=O)[O-])ccc1OC(F)F,10
COc1ccc([N+](=O)[O-])cc1NC(=O)c1ccc(N(Cc2ccccc2Cl)S(C)(=O)=O)cc1,6
CC1(C)CC2(CC(c3ccccc3)Oc3cc(O)ccc32)NC(=O)N1 (stereo not given),24
CCC(=O)Nc1cccc(C(=O)Nc2nccs2)c1,13
O=[N+]([O-])C(=C1Nc2ccccc2N1)/C(Cl)=C(/Cl)Br,16
CC(C)(C)c1ccc(/C=N/Nc2cccc(C(=O)O)c2)cc1,11
COc1ccc(C)cc1NC(=O)c1ccc([N+](=O)[O-])cc1[N+](=O)[O-],17
CN1CCN(c2nc3c(c(=O)n(C)c(=O)n3C)n2CCSc2nnnn2-c2ccccc2)CC1,25
CNC(=S)N1CCC(c2nc3ccccc3s2)CC1,2
Cc1ccc(CN2CCNC(=O)C2CC(=O)N2CCN(c3ncccn3)CC2)o1 (stereo not given),13

# The listing continues.
SMILES,Calb biofilm kill
CN(C)S(=O)(=O)c1cccc(NC(=O)COC(=O)/C=C/c2ccc([N+](=O)[O-])cc2)c1,2
Cc1cc(S(=O)(=O)Nc2cccc(Cl)c2)c(C)s1,13
O=C(COc1ccc2ccccc2c1)N/N=C/C1CC=CCC1 (stereo not given),7
CC12CC(c3ccccc3O1)C(/C(N)=N/NC(=O)c1ccc(F)cc1)C(=O)N2 (stereo not given),20
COc1ccc(Br)cc1C(=O)Nc1cccc(C)c1C,22
Cc1ccc(CN2CCN(Cc3ccc(-n4cccn4)cc3)CC2CCO)cc1 (stereo not given),16
CC(=O)Nc1ccc2c(c1)ncn2C1CCCCC1,16
CCC(C)NC(=O)CC(NS(=O)(=O)c1ccc(NC(C)=O)cc1)C(C)C (stereo not given),18
O=C(CN1CCCc2ccccc21)NC(=O)NC1CCCCC1,14
O=C(NCCc1ccccn1)c1cc(-c2ccccc2Cl)nc2ccccc12,26
CCOC(=O)c1sc2nc(C)nc(SCC(=O)NC(C)CCc3ccccc3)c2c1C (stereo not given),13
O=C(Cc1nnc(NC(=O)Nc2ccccc2F)s1)NCc1ccccc1,13
O=C(c1ccc([N+](=O)[O-])cc1)N1CCN(Cc2ccccc2[N+](=O)[O-])CC1,5
COCCNC(=S)N/N=C/c1ccc(N2CCOCC2)cc1,9
O=C(CCn1c(=O)[nH]c2ccccc2c1=O)N1CC=C(c2ccccc2)CC1,1
CCCCn1c(NCc2cccs2)nc2ccccc21,-5
CC1CCN(CCCCOc2ccccc2Br)CC1,14
CCC1=C(OC(=O)N(CC)CC)N2C(=O)OC(=NCC(=O)OC)[C@]2(Cc2ccccc2)[C@H]2C1=CC[C@H]1C(=O)N(c3ccccc3)C(=O)[C@H]12,17
c1ccc(C(c2ccccc2)c2noc(CN3CCN(C4CCCC4)CC3)n2)cc1,25
CN1CC(C(=O)O)Cc2c1ccc1ccccc21 (stereo not given),14
O=C1c2ccccc2C(=O)C1c1ccccn1,14
CCOC(=O)c1[nH]c2cc3c(cc2c1NC(=O)CN1CCN(CCO)CC1)OCO3,9
Cc1ccc(NC(=O)N2CCCC2C(=O)NCc2cccs2)cc1 (stereo not given),17
CC1=Nn2c(nc3sc4c(c3c2=O)CCCC4)SC1,11
CCCCCCCC(=O)N/N=C(\C)c1ccc(O)cc1O,-11
Cn1cccc1/C=N\NC(=O)Cc1ccc(Br)c2ccccc12,15

# By substructure: the entries above with two or more sulfur atoms (14)
SMILES,Calb biofilm kill
CNS(=O)(=O)c1cccc2nsnc12,5
C=CCn1c(SCC(=O)Nc2nc(C)cs2)nnc1C(NC(=O)c1ccccc1)C(C)C (stereo not given),9
O=C(Cc1csc(Nc2nc(=S)[nH]c3ccccc23)n1)NCCCN1CCN(c2ccccc2F)CC1,5
CCCn1c(SCC(=O)Nc2cccc(S(=O)(=O)N(C)C)c2)nc2ccccc2c1=O,8
CN(C(=O)CSc1nc2ccc([N+](=O)[O-])cc2s1)C1CCS(=O)(=O)C1 (stereo not given),9
CN1C(=O)Cc2cc(S(=O)(=O)NCc3cccs3)ccc21,-9
COC(=O)CSc1nnc(CSc2nc(C)cc(C)n2)o1,13
CCN(CC)S(=O)(=O)c1ccc(Cl)c(NC(=O)CSc2nnc(-c3cccs3)o2)c1,10
CC(CNC(=S)Nc1cc(F)cc(F)c1)CSc1ccc(Cl)cc1 (stereo not given),2
CCc1nnc(NC(=O)CSc2ccc(-c3ccccc3OC)nn2)s1,9
CNC(=S)N1CCC(c2nc3ccccc3s2)CC1,2
Cc1cc(S(=O)(=O)Nc2cccc(Cl)c2)c(C)s1,13
CCOC(=O)c1sc2nc(C)nc(SCC(=O)NC(C)CCc3ccccc3)c2c1C (stereo not given),13
CC1=Nn2c(nc3sc4c(c3c2=O)CCCC4)SC1,11

# The list is partial; rates above refer to the full screens.
